ClpP mod: qHTS Assay for Activators of ClpP; ATP-dependent Clp protease proteolytic subunit (Bacillus subtilis (strain 168)), P80244; purified B. subtilis ClpP, FRET peptide cleavage, 20 min; Potency, µM (titrated, usually from 57.5 µM), inactives show at the highest dose activity change, negative = active; 340,000 tested, 1.9% active; AID 651965, 2013; active = well fitted falling curve with a large enough effect; inconclusive = small, poorly fitted or top-dose-only effect; inactive = no such curve, though single readings can be large or run the other way; note: the source files actives as falling curves though it sought activators and does not explain the sign; nearly all actives have a fitted effect of over 65% in size; many hits overshoot -100%
Target sequence (P80244 whole entry, looked up): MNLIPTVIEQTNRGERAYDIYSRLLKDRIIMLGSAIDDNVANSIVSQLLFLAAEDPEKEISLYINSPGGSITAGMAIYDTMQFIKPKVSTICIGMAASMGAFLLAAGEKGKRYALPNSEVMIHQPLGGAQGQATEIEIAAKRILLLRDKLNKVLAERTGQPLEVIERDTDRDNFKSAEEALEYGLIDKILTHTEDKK
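Purified B. subtilis ClpP, 10 microg/mL final in Tris/HCl pH8 with KCl, BSA, glycerol and Tween-20, cleaved an Abz/nitrotyrosine-quenched decapeptide. Fluorescence (ex 320, em 430) was read at 0 and 20 min at room temperature. Delta was normalized to 5.8 microM ADEP and DMSO/no-enzyme controls.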
* = called active by the depositor; ? = inconclusive. Potency is the fitted concentration of half-maximal effect. A portion of the library. The share of hits here may be higher or lower than overall.

SMILES	ClpP mod
COc1ccc(C(=O)N2c3ccccc3C(C)(c3ccc(Cl)cc3)CC2(C)C)cc1 (stereo unspecified)	-5.4%
CCOC(=O)c1cc(-c2ccccc2)n(CCC(=O)Nc2ccc(C)cc2Cl)c1C	3.6%
CCOCc1cc(CN2CCN(c3cccc(C(F)(F)F)c3)CC2)c(O)c2ncccc12	0.8%
CCC(=O)N1CCc2cc(S(=O)(=O)NC(Cc3ccccc3)C(=O)NCc3cccc(OC)c3)ccc21 (stereo unspecified)	-0.6%
COc1ccc(OC)c(C2CC(=O)Nc3c2c(=O)n(C)c2ncnn32)c1 (stereo unspecified)	-6.1%
COc1ccc(Cl)cc1N(C)c1nc(N2CCN(S(=O)(=O)c3ccc(C)cc3)CC2)c2ccccc2n1	4.3%
CCn1c(=N)c(C(=O)NC2CCCCC2)cc2c(=O)n3cccc(C)c3nc21	4.0%
CCOc1ccc(N(Cc2ccccc2)C(=O)c2nc(SC)ncc2Cl)cc1	-2.8%
CCc1ccccc1NC(=O)CSc1nnc(-c2ccc(OC)cc2)s1	-5.4%
Cc1ccc(-n2ncc3c(NCc4ccccc4)ncnc32)cc1C	?
COc1cccc(Cn2cc(C(=O)c3ccc(Cl)cc3)c(=O)c3ccccc32)c1	0.1%
Cc1ccc2nc(NC(=O)COc3ccc(F)cc3)sc2c1	-1.3%
CCc1cccc(CC)c1NS(=O)(=O)c1ccc2c(c1)CCN2C(=O)C1CC1	1.4%
Cc1cc(S(=O)(=O)Nc2cccc(-c3ccc(N4CCOCC4)nn3)c2)c(C)cc1Cl	-4.9%
COC(=O)c1cc2c(cc1NC(=O)c1cnn(-c3ccccc3)c1-n1cccc1)OCO2	-6.3%
Fc1ccccc1N1CCN(Cc2nnc(-c3ccc4c(c3)OCO4)o2)CC1	35µM*
CC(=O)N1CCc2c(sc3c2c(=O)n(CCc2ccccc2)c(=O)n3Cc2cccc(C)c2)C1	-5.8%
Cn1c(=O)c2sccc2n2c(CCCC(=O)Nc3ccc(Oc4ccc(Cl)cc4)cc3)nnc12	-4.2%
Cc1ccc(Cl)cc1N1CCN(C(=O)C2CCN(S(=O)(=O)Cc3ccccc3)CC2)CC1	1.5%
CCOC(=O)c1cc(-c2ccccc2)n(CC(=O)NCc2ccccc2OC)c1C	0.3%
CCCc1ccc(OC(=O)CSc2nnc(-c3cccs3)o2)cc1	41%
CCc1ccccc1NC(=O)Cn1c(=O)n(CC(=O)NCCc2ccccc2)c(=O)c2ccccc21	0.3%
COC(=O)c1ccc2c(=O)n(CCCCCC(=O)N3CCN(c4cc(Cl)ccc4C)CC3)c(=O)[nH]c2c1	-3.4%
O=C(NCCc1csc(-c2cccc(F)c2)n1)c1ccc(Br)o1	-16%
Cc1ccc(NC(=O)CCn2cccn2)c(C)c1	-0.2%
SMILES	ClpP mod
Cc1ccc(NC(=O)N2CCC(CN3CCCCC3)CC2)c(Cl)c1	-0.2%
COc1cccc(CNC(=O)CSc2nc3ccccc3nc2Cc2ccc(C)cc2)c1OC	0.0%
O=C(Cn1cnc2c(oc3ccccc32)c1=O)Nc1ccc(F)cc1F	-2.4%
Cc1ccc(Cc2c(C)nn(-c3nc(C)c(C(=O)N4CCCCC4C)s3)c2C)cc1 (stereo unspecified)	-4.3%
CC1CCN(C(=O)CSc2nc3ccccc3nc2Cc2ccccc2)CC1	-2.5%
C(=C\c1ccc2ccccc2n1)/c1cccnc1	?
COc1ccc2c(Sc3ccccc3)c(C(=O)NCCc3ccc(Cl)cc3)[nH]c2c1	-0.3%
CC(C)Oc1ccc(CNC(=O)c2ccc3c(c2)N(Cc2ccc(F)cc2)CCS3)cc1	4.5%
CCn1cc(C(=O)NCCCOC(C)C)c(=O)c2cc(S(=O)(=O)N3CCc4ccccc4C3)ccc21	-12%
CC(C)(C)c1ccc(OCc2nnc(-c3ccccc3)o2)cc1	1.2%
COc1ccc(OC)c(CNC(=O)Cn2nc(C)c3nn(-c4ccc(Cl)cc4)c(C)c3c2=O)c1	4.2%
Cc1nc(S(=O)(=O)N2CCN(c3ccc(Cl)cc3)CC2)cn1C	-0.7%
CCc1ccc2occ(CC(=O)Nc3nnc(C)s3)c2c1	0.2%
O=C1c2[nH]nc(-c3ccccc3O)c2C(c2ccccc2F)N1Cc1ccncc1 (stereo unspecified)	-1.1%
CC(CNc1nc2ccccc2c2nc(-c3ccccc3)nn12)c1ccccc1 (stereo unspecified)	-16%
Cc1ccn2c(c1)nc(=O)c1cc(S(=O)(=O)N3CCCCC3)c(Cl)cc12	-12%
O=C(OCc1cc(=O)n2nc(C3CC3)sc2n1)c1ccccc1Cl	-1.9%
Cc1cccc(N(C)C(=O)Cc2c(C(=O)O)[nH]c3ccccc23)c1	-16%
Cc1ccc(CC(=O)Nc2c(C(=O)N3CCN(c4ccccc4F)CC3)oc3ccccc23)cc1	-7.3%
CC(C)OCCCNc1ncnc2sc3c(c12)CCCC3	-4.0%
CC(C)Oc1ccc(CNC(=O)c2ccc(NC(=O)N3CC(C)Sc4ccccc43)cc2)cc1 (stereo unspecified)	-2.4%
CCn1cc2nc(SCC(=O)Nc3ccc(OC)c(OC)c3)n(Cc3ccc(Cl)cc3)c(=O)c2n1	0.4%
Cc1cccc(Cn2c(SCc3ccc(C(=O)NC4CCCCC4)cc3)nc3ccncc32)c1	3.2%
Cc1cccc(-n2ccnc2SCC(=O)Nc2ccc3c(c2)OCO3)c1	-1.1%
CC1CCc2c(sc(NC(=O)C3c4ccccc4Oc4ccccc43)c2C#N)C1 (stereo unspecified)	-1.1%
SMILES	ClpP mod
CC(C)c1ccc(Nc2nc3ccc(C(=O)c4ccccc4)cc3n3cnnc23)cc1	2.7%
Cc1ccc(NC(=O)c2cnc(SCC(=O)N3CCCc4ccccc43)n(C)c2=O)cc1	1.7%
O=C(CSCc1cc(=O)c2cc(F)ccc2[nH]1)Nc1ccccc1Cl	-9.9%
Cc1ccccc1Cn1c2ccccc2c2cnn(CC(=O)NCCc3ccccc3)c(=O)c21	-29%
Cc1ccc(-n2ncc(C(=O)Nc3ccc4c(c3)OCO4)c2C2CCN(C(=O)OC(C)(C)C)CC2)c(C)c1	-1.4%
Cc1ccc2c(c1)c1c(c(=O)n(-c3cccc(Cl)c3)c(=O)n1C)n2C	4.4%
COc1cccc(CNC(=O)C2CCC(CNS(=O)(=O)c3ccc4c(c3)CCCC(=O)N4)CC2)c1 (stereo unspecified)	-0.6%
COc1ccc(CCCc2nnc(SCC(=O)Nc3ccc(C)cc3)o2)cc1	-2.1%
CC(=O)c1ccc(NC(=O)c2cc(S(=O)(=O)N3CCCCCC3)cn2C)cc1	1.3%
COc1ccc(N2CCN(c3oc(-c4ccc(COc5cccc(C)c5)o4)nc3C#N)CC2)cc1	-12%
Clc1ccc2nc[nH]c2c1	-0.2%
Nc1c(C(=O)c2ccc(F)cc2)sc(Nc2ccccc2F)c1S(=O)(=O)c1ccc(Br)cc1	-11%
Cc1c(C(=O)OC2CCCCC2)[nH]c2c1C(=O)CC(c1ccccc1)C2 (stereo unspecified)	-0.3%
CSc1ncc(Cl)c(C(=O)N(Cc2ccc(C)cc2)C2CCS(=O)(=O)C2)n1 (stereo unspecified)	-0.3%
CC(C)(C)NC(=O)N1CCC(C(=O)O)CC1	3.5%
Cc1ccc(NC(=O)Cn2c(=O)c3cc(Cl)ccc3n3nncc23)cc1	-13%
O=C(Nc1nnc(C2CCCCC2)s1)C1CCN(C(=O)c2ccco2)CC1	-3.7%
CC(C)c1ccc(NC(=O)c2ccc(F)c(S(=O)(=O)N3CCCC3)c2)cc1	-0.4%
COc1ccc(NC(=O)/C=C\C(=O)N(c2ccc(C(C)C)cc2)C(C(=O)NCc2ccco2)c2ccc(F)cc2)cc1 (stereo unspecified)	2.4%
Cc1ccc(C)c(CSc2nc3ccncc3n2CC(=O)Nc2ccc(N(C)C)cc2)c1	3.9%
CCN(CC)c1ccc(C(=O)N2CCC(c3c[nH]c4ccccc34)(c3c[nH]c4ccccc34)CC2)cc1	?
CCOc1ccc(C(=O)OCc2cc(=O)n3nc(C4CC4)sc3n2)cc1	-2.1%
CCc1ccc2oc(-c3cc(NC(=O)c4cc([N+](=O)[O-])ccc4N4CCOCC4)ccc3Cl)nc2c1	-0.7%
CCOC(=O)c1ccc(NC2=CC(c3ccc(OCC)cc3)N(c3ccc(C(=O)OCC)cc3)C2=O)cc1 (stereo unspecified)	-2.8%
Cc1ccc(-c2csc(/C(C#N)=C/c3ccccc3Cl)n2)cc1	-3.5%
SMILES	ClpP mod
CCOCCn1c(=NC(=O)c2ccc3c(c2)OCCO3)sc2cc(OCC)ccc21	4.4%
C=Cc1ccc(Cn2c(C)c(CNCc3ccc(SC)cc3)c(C(=O)O)c2C)cc1	-4.8%
CCc1ccc(NC(=O)Cn2c(=O)n(CC3CCCO3)c(=O)c3cc(OC)c(OC)cc32)cc1 (stereo unspecified)	4.1%
COc1ccc(Br)cc1CNC(=O)Cn1nc(C)n2c(cc3cc(F)ccc32)c1=O	-12%
Cc1ccc(Nc2ccc(N3CCN(C(=O)c4ccc([N+](=O)[O-])cc4)CC3)nn2)cc1	2.1%
O=C(Nc1ccc(Br)cc1F)c1cc(S(=O)(=O)NCc2ccc(F)cc2)ccc1F	4.8%
Cc1ccc(S(=O)(=O)c2cn(Cc3ccc(F)cc3)c3cc(N4CCCC4)c(F)cc3c2=O)cc1	-5.2%
CCOc1ccc(S(=O)(=O)Nc2cc3c(C(=O)OCc4ccccc4)c(C)oc3c3ccccc23)cc1	1.4%
Cc1ccc(N2C(=O)CCSC23C(=O)N(Cc2ccccc2)c2ccccc23)cc1 (stereo unspecified)	0.9%
Cc1ccccc1Cn1c(=O)n(Cc2ccc(Cl)cc2)c(=O)c2cccnc21	25µM*
O=C(c1cnc(N2CCOCC2)c2ccccc12)N1CCN(c2ccccc2)CC1	-14%
COc1ccc(NC(=O)c2ccc3oc(=O)c(S(=O)(=O)c4ccc(F)cc4)cc3c2)c(OC)c1	-3.0%
Cc1oc2c(cc(NS(=O)(=O)c3ccc(C(C)C)cc3)c3ccccc32)c1C(=O)OCc1ccccc1	-1.3%
Cc1ccc(-n2ncc3c(NCCc4ccccc4)ncnc32)cc1	3.9%
Cc1ccc(S(=O)(=O)c2cnc(SCC(=O)Nc3ccc4c(c3)OCCO4)[nH]c2=O)cc1	-1.1%
COCCNC(=O)c1cnn(-c2cccc(C)c2)c1-n1cccc1	-2.1%
CCc1ccc(OCC(=O)Nc2ccc(Cl)c(-c3nc4cc(C)cc(C)c4o3)c2)cc1	?
CN(c1ccccc1)S(=O)(=O)c1nnc(NC(=O)c2cccs2)s1	-6.9%
CCSc1nnc2n(-c3cccc(C)c3)c(=O)c3c4c(sc3n12)CCCC4	0.3%
Cc1cc2nc(-c3ccc(NC(=O)c4cc5ccccc5o4)cc3)oc2cc1C	-22%
Cc1ccc(S(=O)(=O)N(CC(O)Cn2c3ccccc3c3ccccc32)c2cccc(C(=O)N(C)C)c2)cc1 (stereo unspecified)	-2.1%
CC(C)COc1ccc(CC(=O)NO)cc1	1.6%
CC(=O)c1sc2c(c1C)c(=O)n(-c1ccc(Cl)cc1)c(=O)n2Cc1cc(=O)n2cc(Cl)ccc2n1	-20%
COc1cc(/C=C(/C#N)c2nc(-c3cc4ccccc4oc3=O)cs2)ccc1O	-0.7%
Cc1cc(NC(=O)Nc2nnc(N(C)C3CCCCC3)s2)ccc1Br	0.2%

Copied from the entries so far for reference:
SMILES	ClpP mod
Cc1ccc(NC(=O)CCn2cccn2)c(C)c1	-0.2%
Cc1ccc(NC(=O)N2CCC(CN3CCCCC3)CC2)c(Cl)c1	-0.2%
COc1cccc(CNC(=O)CSc2nc3ccccc3nc2Cc2ccc(C)cc2)c1OC	0.0%
O=C(Cn1cnc2c(oc3ccccc32)c1=O)Nc1ccc(F)cc1F	-2.4%
Cc1ccc(Cc2c(C)nn(-c3nc(C)c(C(=O)N4CCCCC4C)s3)c2C)cc1 (stereo unspecified)	-4.3%
CC1CCN(C(=O)CSc2nc3ccccc3nc2Cc2ccccc2)CC1	-2.5%
C(=C\c1ccc2ccccc2n1)/c1cccnc1	?
COc1ccc2c(Sc3ccccc3)c(C(=O)NCCc3ccc(Cl)cc3)[nH]c2c1	-0.3%
CC(C)Oc1ccc(CNC(=O)c2ccc3c(c2)N(Cc2ccc(F)cc2)CCS3)cc1	4.5%
CCn1cc(C(=O)NCCCOC(C)C)c(=O)c2cc(S(=O)(=O)N3CCc4ccccc4C3)ccc21	-12%
CC(C)(C)c1ccc(OCc2nnc(-c3ccccc3)o2)cc1	1.2%
COc1ccc(OC)c(CNC(=O)Cn2nc(C)c3nn(-c4ccc(Cl)cc4)c(C)c3c2=O)c1	4.2%
Cc1nc(S(=O)(=O)N2CCN(c3ccc(Cl)cc3)CC2)cn1C	-0.7%
CCc1ccc2occ(CC(=O)Nc3nnc(C)s3)c2c1	0.2%

The list continues:
SMILES	ClpP mod
CCn1c(=N)c(C(=O)NCc2cccnc2)cc2c(=O)n3cc(C)ccc3nc21	0.2%
COc1ccc(N(Cc2cc3ccccc3[nH]c2=O)C(=O)c2cccc(Cl)c2)cc1	-20%
CCOC(=O)c1c(-c2ccccc2)oc2ccc(N(C(C)=O)S(=O)(=O)c3ccccc3)cc12	?
CCOC(=O)c1c(C)[nH]c(CCC(=O)NCCCN2CCN(c3cc(Cl)ccc3C)CC2)c1C	-5.3%
COc1ccc2oc(=O)cc(CN3CCN(c4ccc(F)cc4)CC3)c2c1	-10%
CCn1cc2nc(SCc3ccc(F)cc3)n(CCc3ccccc3)c(=O)c2n1	-3.1%
CCOc1ccc(/C=C(\C#N)c2nc(-c3cc4ccccc4oc3=O)cs2)c(OCC)c1	-2.4%
COc1cc(NC(=O)C2CCN(S(=O)(=O)c3ccc4c(c3)oc(=O)n4C)CC2)cc(OC)c1	-0.3%
